Screening results as filed in PubChem.
PK Bst: alters activity of Bacillus stearothermophilus pyruvate kinase | AID 361 | 51,000 tested, 1.2% active | partly purified Bacillus stearothermophilus pyruvate kinase, luminescence ATP production; ribose 5-phosphate activator present at AC10 | Potency, µM; in the data active means potency below about 11 µM; inconclusive means mostly about 12 µM to 25 µM; inactive means weaker than that;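 the screen sought inhibitors and activators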;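 further: potency means the concentration at half of the fitted maximal effect; scaled between full activation by ribose 5 phosphate and full inhibition by luteolin; about four in five hits inhibit and the cells do not say which; series up to 57 µM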
YjeE inh: YjeE (TsaE) inhibition, E. coli. purified YjeE, fluorescence polarisation of a bound ADP probe. Potency, µM. 71,000 tested, 0.05% active; active = well fitted falling curve; inconclusive = weaker or top-dose-only fall, or a rising curve; inactive = flat or poorly fitted curve;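 further: top concentration of the series not given in the record; excess ADP was the control for the full effect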
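Fluorescence polarization of a BODIPY Texas Red–ADP probe (2 uM) bound to purified YjeE (10 uM) was read after 15 min room-temperature incubation with compounds. Loss of polarization marks inhibitors; ADP serves as titrated control.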
An asterisk follows results filed as active; i = inactive; . = not tested or not shown. An excerpt; rates above refer to the full screens.

Every second line gives: PK Bst, YjeE inh
NS(=O)(=O)c1ccc(CCNc2ncnc3sccc23)cc1
    >57, i
O=C(CNC(=O)c1cccs1)OCC(=O)c1cccs1
    >57, i
CCCc1cc(=O)[nH]c(SCC(=O)N(Cc2ccccc2)C(C)C)n1
    >57, i
CCOC(=O)Nc1nnc(CCc2ccccc2)s1
    >57, i
COc1ccc(C)cc1NC(=O)c1nnn(CCc2ccccc2)c1N
    ., i
O=C(CSc1nnc(C2COc3ccccc3O2)o1)NC1CCCCC1 (stereo not drawn)
    ., i
CS(=O)(=O)N1CCC2(CCCN(c3cccc(-c4ccccc4)c3)C2)CC1
    ., i
Cc1cccc(-n2nnnc2SCC(=O)NCCN2C(=O)CSC2=O)c1
    >57, i
O=C(CN1C(=O)CCS(=O)(=O)c2ccccc21)Nc1ccc2c(c1)OCCO2
    >57, i
CCCOc1nc2c(c(=O)n(C)c(=O)n2C)n1CCC
    >57, i
Cc1cccc2c1nc(-c1ccccc1)n1nnnc21
    >57, i
CC1(C(=O)NCCN2CCOCC2)C=CCN1C(=O)c1ccccc1 (stereo not drawn)
    ., i
Cc1nn(-c2ccc(C(=O)O)cc2)c(=O)c2ccccc12
    >57, i
CCCC(=O)Nc1ccc2c(c1)nc1n2CCOC1
    >57, i
COC(=O)c1cc(NC(=O)CN2CCC(C(N)=O)(N3CCCCC3)CC2)cc(C(=O)OC)c1
    >57, i
CC1(C)Cc2c(sc3c2c(=N)n(Cc2ccco2)c(=O)n3Cc2ccc(F)cc2)CO1
    >57, i
COC(=O)c1[nH]c(C)c(/C(O)=C2\C(=O)C(=O)N(CCN3CCOCC3)C2c2ccccc2OC)c1C (stereo not drawn)
    >11, .
CCOc1cc(S(=O)(=O)n2c(C)nc3ccccc32)ccc1F
    >57, i
COc1cc(NCC[C@@H]2CCCCN2)c2ncccc2c1
    ., i
COc1cc(Cl)c(CC(=O)c2c[nH]c3ccccc23)cc1OC
    ., i
O=C(CSc1nc2ccccc2o1)Nc1nc2ccccc2s1
    >57, i
CC1CCN(C(=O)CSc2nncn2-c2ccccn2)CC1
    >57, i
O=C(Oc1cccc(-n2cnnn2)c1)C1CCCCC1
    >57, i
CCOc1cc(C#N)c(NC(=O)c2ccco2)cc1OCC
    >57, i
Cc1ccc(C2C(C(=O)c3sc(-c4ccccc4)nc3C)=C(O)C(=O)N2CCN(C)C)o1 (stereo not drawn)
    >57, i
Cc1ccc(S(=O)(=O)N(C)Cc2cc3ccccc3[nH]c2=O)cc1
    >57, i
CCCN1CCC(NC(=O)Nc2ccc(F)cc2F)CC1
    >57, i
Cc1ccc(C2CC(C(F)(F)F)n3nc(C(=O)NCc4c(C)nn(C)c4C)c(Cl)c3N2)cc1 (stereo not drawn)
    >57, i
Cc1cc2nc(-c3ccc(SCC(=O)N4CCOCC4)nc3)[nH]c2cc1C
    2.1*, i
Clc1ccc2c(c1)N(CCCN1CCCC13CCCCC3)c1ccccc1S2
    ., i

The listing continues:
Every second line gives: PK Bst, YjeE inh
Cc1ccc(S(=O)(=O)N2CCN(S(=O)(=O)c3ccc(C)cc3)C3OCCOC32)cc1 (stereo not drawn)
    ., i
CC(C)(C)n1ncc2c(=O)n(CC(=O)N3CCCCCC3)cnc21
    >57, i
O=c1c(CCc2ccccc2)nc2cnc(N3CCNCC3)nc2n1CCc1ccccc1
    ., i
N#Cc1c(NC(=O)CSc2nc(N)cc(=O)[nH]2)sc2c1CCCCCC2
    >57, i
CCNC(=O)N1C(CC(=O)OCC)C(=O)NC2CCCCC21 (stereo not drawn)
    >57, i
CCOC(=O)C1C(=O)OC2(CCOC(C)(C)C2)C1C(=O)OCC (stereo not drawn)
    ., i
Cc1ccc(NC(=O)CN(C)S(=O)(=O)c2cccc3cccnc23)cc1
    ., i
COc1ccc(S(=O)(=O)NCc2ccncc2)cc1OC
    ., i
O=C(c1ccco1)N1CCC[C@@]2(CCN(c3ccncc3)C2)C1
    ., i
O=C(CSc1ccccc1)N1CCN(c2ccccc2)CC1
    >57, i
COC(=O)Cn1cnc2c(nnn2-c2cccc(Cl)c2)c1=O
    ., i
O=C(CSc1nnnn1C1CCCCC1)Nc1nc2c(s1)CCCC2
    >57, i
CCOC(=O)CSc1cn2c(n1)CCC2
    >57, i
CCC(C)(C)NC(=O)C(c1cccs1)N(CC1CCCO1)C(=O)Cn1nnc2ccccc21 (stereo not drawn)
    >57, i
CCOC(=O)C1CCCN(C(=O)c2ccccc2SCCOC)C1 (stereo not drawn)
    >57, i
Nc1nnn(Cc2ccccc2)n1
    >57, i
O=C(c1cccnc1)N1CCN(CCCc2ccccc2)CC1
    >57, i
CCOc1ccc(NC(=O)N2CCC(NC(=O)c3ccco3)CC2)cc1
    >57, i
COc1cccc(NC(=O)C(C#N)Cc2ccncc2)c1 (stereo not drawn)
    >57, i
Cc1ccc(SC(C)c2nc(-c3ccccc3)no2)cc1 (stereo not drawn)
    >57, i
CCOC(=O)c1[nH]cc(-c2ccccc2)c1N1CCOCC1
    >57, i
Cc1nc(NC(=O)CSc2nnc(C)n2CC2CCCO2)sc1C (stereo not drawn)
    >57, i
CCOC(=O)CNS(=O)(=O)c1cc(-c2n[nH]c(=O)c3ccccc23)ccc1C
    >26, .
O=C(c1cc(-c2cccs2)on1)N1CCCCC1
    ., i
CCCCCn1c(CNC(=O)CCC)nc2ccccc21
    ., i
O=S(=O)(Nc1ccc(O)cc1)c1cccc2cccnc12
    ., i
CCOC(=O)CCCn1c(C)nc(=O)c(-c2ccccc2)c1C
    >57, i
CCCCSc1nsc(NC(C)=O)n1
    >57, i
CSCC[C@H](NC(=O)C1CCN(S(=O)(=O)c2ccc(C)cc2)CC1)C(=O)NCc1ccco1
    >57, i
CCCS(=O)(=O)NCCc1cc2ccc(C)cc2[nH]c1=O
    >57, i

Structures shown so far containing a cyano group (3):
Every second line gives: PK Bst, YjeE inh
CCOc1cc(C#N)c(NC(=O)c2ccco2)cc1OCC
    >57, i
N#Cc1c(NC(=O)CSc2nc(N)cc(=O)[nH]2)sc2c1CCCCCC2
    >57, i
COc1cccc(NC(=O)C(C#N)Cc2ccncc2)c1 (stereo not drawn)
    >57, i

Quoted at random: 2 compounds from above
Every second line gives: PK Bst, YjeE inh
COc1cccc(NC(=O)C(C#N)Cc2ccncc2)c1 (stereo not drawn)
    >57, i
CCCS(=O)(=O)NCCc1cc2ccc(C)cc2[nH]c1=O
    >57, i

Continuation:
Every second line gives: PK Bst, YjeE inh
Cc1ccc(C)c(-n2c(Cc3cc(=O)[nH]c(=O)[nH]3)nnc2SCC(=O)NCC2CCCO2)c1 (stereo not drawn)
    >57, i
O=C(O)CCC(=O)Nc1nnc(C(F)(F)F)s1
    >57, i
C=C(C#N)C(=O)OCC
    ., i
CN(C)CCC=C1c2ccccc2CCc2ccccc21
    >11, i
Cc1sc2ncnc(OCC(=O)NCc3cccs3)c2c1C
    >57, i
Cc1ccccc1NC(=O)CSc1[nH]c(=O)cc(C)c1C#N
    ., i
O=C1CC(N2CCOCC2)C(=O)N1Cc1ccc(N2CCCC2=O)cc1 (stereo not drawn)
    >57, i
CCOC(=O)N1CCN(C(=O)c2cc(C)c3c(C)nn(-c4ccccc4)c3n2)CC1
    >57, i
COc1ccc(Br)cc1CNC(=O)C1CCCN(S(C)(=O)=O)C1 (stereo not drawn)
    5.4*, i
Cc1c(C(=O)N2CC(C)OC(C)C2)sc2nc(-c3ccc(F)cc3)cn12 (stereo not drawn)
    >57, i
Cc1cc(N2CCN(C(=O)c3ccco3)CC2)n2nc(-c3cccc(Cl)c3)cc2n1
    >57, i
CCOC(=O)c1cnn(CCOC(=O)C(C)(C)C)c1NC(=O)C(C)(C)C
    >57, i
Cc1ccc2nc(SCC(=O)NC(=O)NCc3ccco3)[nH]c2c1
    >57, i
COc1cc(NC(=O)c2ccc(COc3ccccc3Br)o2)cc(OC)c1OC
    >57, i
O=C(CCS(=O)(=O)c1ccc(Br)s1)NCc1ccc2c(c1)OCO2
    >57, i
Cc1nc(-c2ccc(C(=O)N3CCOCC3)cc2)cs1
    >57, i
Fc1ccc2nc(-c3ccccc3)nc(SCc3nnc(-c4ccccc4)o3)c2c1
    >57, i
CCn1cc(C(=O)N2CCCc3ccccc32)c2cc(OC)c(OC)cc2c1=O
    >57, i
CC(=O)N1[C@H](C)C=C[C@]1(Cc1ccccc1)C(=O)NCCN1CCOCC1
    ., i
CCOC(=O)c1ccc2nc(NC(=O)c3ccco3)sc2c1
    i, i
COc1ccc(-c2nc3cnc(N4CCNCC4)nc3n(-c3ccc(OC)cc3)c2=O)cc1
    ., i
Cc1ccc(-c2nn3c(C)nnc3s2)cc1NC(=O)CSc1ccc(Cl)cc1
    >57, i
CCOc1ccccc1NC(=O)Cc1ccccc1OC
    >57, i
CCOC(=O)Cc1csc(NC(=O)CSc2nc(C)cc(=O)[nH]2)n1
    >57, i
O=C(Cn1ncc2c(=O)oc3ccccc3c21)NC1CC1
    >57, i
CC1CCCC(C)N1C(=O)CSc1nnc(-c2cccs2)o1 (stereo not drawn)
    >11, i
Cc1ccc(S(=O)(=O)N2CC3(C)CN(S(=O)(=O)c4ccc(C)cc4)CC(C)(C2)C3O)cc1 (stereo not drawn)
    >57, i
O=c1cc(O)c2c(=O)n3c4c(cccc4c2o1)CCC3
    >57, i
CCN(CC)CCCn1c(-c2ccccc2)nc2c(NCCOC)nc(C)nc21
    ., i
CCOc1ccc(C(=O)Nc2nnn(CC)n2)cc1
    ., i

Complete entries as entered above. Order of values: PK Bst | YjeE inh
O=C(O)CCC(=O)Nc1nnc(C(F)(F)F)s1 across the screens: >57 | i
O=S(=O)(Nc1ccc(O)cc1)c1cccc2cccnc12 across the screens: . | i

(more compounds)
Every second line gives: PK Bst, YjeE inh
CN(C)CCCN1c2ccccc2C(C)(C)c2ccccc21
    ., i
Cc1noc(/C=C/N(C)C)c1S(=O)(=O)N(C)CC(=O)NC1CCCCC1
    >57, i
CCOC(=O)COc1nc(Nc2ccccc2C)nc(N(C)C)n1
    >57, i
COc1ccc(NS(=O)(=O)c2ccc(NS(=O)(=O)c3ccc(C)cc3)cc2)nn1
    ., i
O=C(c1ccc(CN2CCc3ccccc3C2)cc1)N1CCCCC1
    ., i
O=C(NCc1cccs1)c1cc2ccccc2o1
    >57, i
CCOC(=O)c1ccc(-c2nnc(-c3ccc(Cl)cc3Cl)o2)cc1
    >57, i
CCCn1c(CCc2ccccc2)nnc1SCC(=O)N1CCCC1
    >57, i
Cc1c(/C(O)=C2/C(=O)C(=O)N(CCN3CCOCC3)C2c2cccnc2)cnn1-c1ccccc1 (stereo not drawn)
    >26, .
CCOC(=O)c1c(C)n(C)c2ccc(OC)c(NC(=O)CN3CCN(Cc4ccccc4)CC3)c12
    >26, .
COC(=O)CSc1nnc(CNC(=O)c2cccs2)n1-c1cc(OC)ccc1OC
    >57, i
COc1ccc(CCNC(=O)C2CCCN2C(=O)NC2CCCCC2)cc1OC (stereo not drawn)
    >57, i
O=C(CSc1nc2c(c(=O)[nH]1)CCCC2)Nc1ccc(Cl)cc1F
    >57, i
COCCCNS(=O)(=O)c1ccc2c(c1)CCN2C(C)=O
    >57, i
CC12CCC(C(=O)NCc3ccccc3)(OC1=O)C2(C)C (stereo not drawn)
    >57, i
CCc1nc(SCC(=O)N2CCc3ccccc32)c2oc3ccccc3c2n1
    >57, i
O=C(O)CCN=C1CCCc2ccccc2N1
    >57, i
COc1ccc(C(=O)COC(=O)c2ccc(OC)c(OC)c2)cc1OC
    >57, i
Cc1ccc2c(c1C)NC(=O)C2(O)CC(=O)c1ccc2c(c1)OCO2 (stereo not drawn)
    i, i
Cc1nnc(SCc2ccccc2Cl)n1CC1CCCO1 (stereo not drawn)
    >57, i
COc1ccccc1CNc1ccnc(-c2cccc(NS(C)(=O)=O)c2)n1
    ., i
CCCC[C@@H]1C[C@H]1C(NC(=O)c1ccco1)c1ccccc1 (stereo partly drawn)
    ., i
O=C(C1CCN(S(=O)(=O)N2CCC3(CC2)OCCO3)CC1)N1CCN(Cc2ccccc2)CC1
    >57, i
CC1=C(C(=O)N2CCCCC2)C(c2cccs2)C2=C(CCCC2=O)N1 (stereo not drawn)
    ., i
CCCCC(=O)Nc1ccc(C(=O)N2CCN(c3ccccc3OC)CC2)cc1
    >57, i
CCn1c(=O)[nH]c2cc(Cl)c(Cl)cc21
    ., i
CCOC(=O)C1CCN(C(c2ccc(OC)c(OC)c2)c2sc3nc(C)nn3c2O)CC1 (stereo not drawn)
    ., i
CCOC(=O)c1ccc(NC(=O)C2=C(C)Nc3nc(CCCO)nn3C2c2cccc(C)c2)cc1 (stereo not drawn)
    ., i
COc1ccc2nc(C)cc(N3CC(C)OC(C)C3)c2c1 (stereo not drawn)
    >57, i
COc1cccc(NC(=O)CSC2=C(C#N)C(c3ccco3)C3=C(CCCC3=O)N2)c1 (stereo not drawn)
    >26, .
Cc1nc(CC(=O)N2CCN(c3cccc(C)c3C)CC2)cs1
    >57, i
C=CCOC(=O)C1=C(C)NC(=O)NC1c1ccc(OC(=O)c2ccco2)c(OC)c1 (stereo not drawn)
    ., i
